NS1 function inh – blocks influenza NS1 protein function; S. cerevisiae slowed by influenza A NS1, growth recovery by OD600; Potency, µM (titrated, usually from 46.1 µM), for the others: at the highest dose activity, positive = more growth; actives 0.4% (n = 270,000); active means well fitted rising curve with a large enough effect; inconclusive means small, poorly fitted or top-dose-only effect; inactive means no such curve, though single readings can be large or run the other way; further: nearly all actives have a fitted effect of over 50% in size
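Growth recovery, yeast-based: influenza A NS1 expressed in S. cerevisiae causes slow growth, and suppressors are detected by OD600. The parent strain without NS1 is used as positive control.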
Cruzain inh Det – inhibitors of Trypanosoma cruzi cruzain with detergent; purified cruzain, Z-FR-AMC fluorescence, 0.01% Triton; Potency, µM, without a hit: max response, negative = inhibition, actives largely listed as inhibitors; actives 0.43% (n = 200,000);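 further: plate controls were neutral wells for no effect and buffer without enzyme for full effect; nearly all actives have a fitted effect of over 40% in size; top concentration of the series not given in the record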
Target sequence (P25779 123-467 limits assumed): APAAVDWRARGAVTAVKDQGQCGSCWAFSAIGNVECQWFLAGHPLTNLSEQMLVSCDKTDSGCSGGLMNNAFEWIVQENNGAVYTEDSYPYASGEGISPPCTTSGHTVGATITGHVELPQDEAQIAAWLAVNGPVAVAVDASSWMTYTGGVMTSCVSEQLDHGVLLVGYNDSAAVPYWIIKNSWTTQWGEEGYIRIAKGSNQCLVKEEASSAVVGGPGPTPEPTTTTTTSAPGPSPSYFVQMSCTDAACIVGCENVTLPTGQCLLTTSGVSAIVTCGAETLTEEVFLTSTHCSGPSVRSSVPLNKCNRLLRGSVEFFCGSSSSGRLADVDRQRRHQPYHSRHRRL
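Detergent-containing run (0.01% Triton X-100) in acetate buffer pH 5.5 with 5 mM DTT: enzyme at 1.5 nM final, 15 min compound preincubation at room temperature, then 2 uM Z-FR-AMC substrate. Activity taken as 60 s fluorescence increase at 360/450 nm.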
RE007 growth inh – less growth of the S. pombe RE007 Vpr strain | S. pombe RE007 Vpr strain, BacTiter-Glo ATP luminescence, 24 h; control for the full effect not named in the record | Potency, µM (highest dose often 92.2 µM), for inactives: at the top dose activity change, negative = less growth | actives 0.21% (n = 360,000) | AID 651644; active = well fitted falling curve with a large enough effect; inconclusive = small, poorly fitted or top-dose-only effect; inactive = no such curve, though single readings can be large or run the other way;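 further: on the % scale 0 is the no-effect control and ±100 the full control effect; nearly all actives have a fitted effect of over 50% in size; the assay follows cell death caused by Vpr and the record does not say whether a fall means rescue or toxicity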
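Fission yeast RE007 carrying one integrated HIV-1 vpr copy, seeded at OD 0.01 in PMG+AL medium with 23 nL pinned compound. Grown 24 h at 30 degrees; viability read by BacTiter-Glo luminescence after 5 min.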
SARS PLpro yeast – SARS-CoV PLP inhibition in yeast; actives 0.19% (n = 330,000); Potency, µM (highest dose often 32.9 µM), for the others: at the highest dose activity, positive = growth rescue; AID 485353; S. cerevisiae expressing SARS-CoV PLpro, growth rescue; control for the full effect not named in the record; active means well fitted rising curve with a large enough effect; inconclusive means small, poorly fitted or top-dose-only effect; inactive means no such curve, though single readings can be large or run the other way; further: 0% is about no effect; nearly all actives have a fitted effect of over 55% in size; growth read by luminescence after 48 h
LASV entry inh – inhibitors of Lassa virus binding or cell entry. Lassa virus pseudotype entry inhibition, cell reporter; control for the full effect not named in the record. Potency, µM (series often up to 37.9 µM), for the others: top-dose activity change, negative = inhibition, hits mostly inhibitors. actives 1.2% (n = 300,000). AID 540256; active means well fitted inhibition curve with a large enough effect; inconclusive means small, poorly fitted or top-dose-only effect, or effect the other way; inactive means flat fitted curve, though single readings scatter; tested in HEK293 cells; further: on the % scale 0 is the no-effect control and ±100 the full control effect; nearly all actives have a fitted effect of over 50% in size; luciferase read-out
MARV entry inh – blocks Marburg virus binding to or entry into cells; Marburg virus pseudotyped entry inhibition, cell reporter; control for the full effect not named in the record; about a third of the inactives were read at about 46 µM; Potency, µM (doses to about 37.8 µM), without a hit: at the highest dose activity change, negative = inhibition, hits mostly inhibitors; actives 1.8% (n = 300,000); active = well fitted inhibition curve with a large enough effect; inconclusive = small, poorly fitted or top-dose-only effect, or effect the other way; inactive = flat fitted curve, though single readings scatter; tested in HEK293 cells; about a fifth of its hits are not listed in these tables; further: on the % scale 0 is the no-effect control and ±100 the full control effect; luciferase read-out
StopGo reporter – lowers the luciferase signal of an FMDV 2A StopGo reporter. human cells with a luciferase reporter of 2A StopGo recoding; control for the full effect not named in the record. Potency, µM (titrated, usually from 57.9 µM), without a hit: at the highest dose signal change, negative = less light. actives 1.2% (n = 410,000). AID 1159524; active = well fitted falling curve with a large enough effect; inconclusive = small, poorly fitted or top-dose-only effect; inactive = no such curve, though single readings can be large or run the other way; tested in HEK293T cells; further: on the % scale 0 is the no-effect control and ±100 the full control effect; nearly all actives have a fitted effect of over 45% in size; luciferase light after 4 h
Cruzain noTriton – blocks cruzain activity in detergent-free assay. purified cruzain, Z-FR-AMC fluorescence, no detergent. AID 1476. actives 2.3% (n = 200,000). P25779. Potency, µM, without a hit: max response, negative = inhibition, hits mostly inhibitors;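 further: plate controls were enzyme without inhibitor for no effect and buffer without enzyme for full effect; nearly all actives have a fitted effect of over 40% in size; top concentration of the series not given in the record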
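Detergent-free condition (0.00005% Triton X-100) in acetate buffer pH 5.5 with DTT. 1.5 nM enzyme and compound were pre-mixed 15 min, then 2 uM Z-FR-AMC substrate added; reaction progress from fluorescence change between first and third reads (60 s).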
Active calls of the source: *; & = joins results of further samples; [ ] = remark or other dose. Unless noted, the call rests on the fitted dose curve; in most records, active means well fitted curve in the direction sought with a large enough effect; inconclusive means small, poorly fitted or top-dose-only effect, or another doubt; inactive means no such curve, though single readings can be large; an effect the other way counts as inactive or inconclusive. Potency means the concentration at half of the fitted maximal effect.

COc1ccc(C2CC(=O)C=C(NCC3CCCO3)C2)cc1 (stereo unspecified) was read as NS1 function inh 2%, Cruzain inh Det 11%, RE007 growth inh 2%, SARS PLpro yeast -6%, LASV entry inh 6%, MARV entry inh 13%, StopGo reporter -7% and Cruzain noTriton 0%.
For COC(=O)CN1C(=O)[C@H]2[C@@H](C3CC3)N3C(=O)CN(Cc4ccc(-c5ccccc5)cc4)C(=O)[C@@]3(Cc3ccccc3)[C@H]2C1=O the results were NS1 function inh 17%, RE007 growth inh -14%, SARS PLpro yeast -9% and StopGo reporter -16%.
Screening COc1ccc(OC)c(/C(C)=N\NC(=O)c2cc3cc(Cl)ccc3n2C)c1 returned NS1 function inh inconclusive, RE007 growth inh -11%, SARS PLpro yeast -11% and StopGo reporter -4%.
Cc1ccc(C(=O)NCCc2cccs2)cc1 was read as NS1 function inh 3%, RE007 growth inh 5%, SARS PLpro yeast -1%, LASV entry inh inconclusive, MARV entry inh 1.8µM* and StopGo reporter -71%.
Screening CCOC(=O)C(CC)Sc1nnc2[nH]c(=O)cc(C)n12 (stereo unspecified) returned Cruzain inh Det -0.5%, LASV entry inh 7%[46.1 µM], StopGo reporter -5% and Cruzain noTriton 5%.
Screening Cc1ccc(C)c(NC(=S)c2ccccn2)c1 returned NS1 function inh -34%, Cruzain inh Det 2.6%, RE007 growth inh inconclusive, SARS PLpro yeast 8%, LASV entry inh 17%, MARV entry inh 6%, StopGo reporter 28% and Cruzain noTriton -2%.
`CCN1CCc2c(OCC(=O)N3N=C(c4cccs4)CC3c3ccc(F)cc3)cccc2C1=O` (stereo unspecified) gave NS1 function inh 2%, Cruzain inh Det -14%, RE007 growth inh 0%, SARS PLpro yeast -13%, LASV entry inh 11µM*, MARV entry inh inconclusive, StopGo reporter -24% and Cruzain noTriton -10%.
For CC(OC(=O)c1cc(Br)ccc1O)C(=O)NCc1ccc2c(c1)OCO2 (stereo unspecified) the results were RE007 growth inh 5%, SARS PLpro yeast 1%, LASV entry inh inconclusive, MARV entry inh 11%[46.1 µM] and StopGo reporter 17%.
Screening CCCCCCc1cc2cc(S(=O)(=O)c3ccc(Cl)cc3)c(=O)oc2cc1O returned NS1 function inh -24%, Cruzain inh Det -5.2%, RE007 growth inh -7%, SARS PLpro yeast 13%, LASV entry inh 4%, MARV entry inh 6%, StopGo reporter inconclusive and Cruzain noTriton 13µM*.
Screening Cn1ncc2c(NNC(=O)Cc3cccc4ccccc34)ncnc21 returned NS1 function inh 9%, Cruzain inh Det 0.6%, RE007 growth inh -18%, SARS PLpro yeast -3%, LASV entry inh -6%, MARV entry inh -8%, StopGo reporter 1% and Cruzain noTriton 4%.
For O=C(CC12CC3CC(CC(C3)C1)C2)NC(=S)NCc1ccco1 the results were NS1 function inh -1%, RE007 growth inh 9%, SARS PLpro yeast -4% and StopGo reporter -16%.
Cc1cc(NC(=O)c2c(F)cccc2Cl)no1 was read as NS1 function inh 6%, RE007 growth inh 26%, SARS PLpro yeast -3%, LASV entry inh 16%, MARV entry inh 11%[46.1 µM] and StopGo reporter 44%[activator].
For NC(=O)c1sc2nc3c(c(-c4ccccc4)c2c1N)CCC3 the results were NS1 function inh -10%, Cruzain inh Det -11%, RE007 growth inh -23%, SARS PLpro yeast -16%, LASV entry inh 15%, MARV entry inh -18%, StopGo reporter inconclusive and Cruzain noTriton -11%.
`CC1CCN(C(=O)CSc2nnc(CNC(=O)c3c(F)cccc3F)o2)CC1` gave NS1 function inh inconclusive, RE007 growth inh -10%, SARS PLpro yeast -3%, LASV entry inh 0%, MARV entry inh -18% and StopGo reporter -15%.
Cc1cc(CNC(=S)Nc2cccc(Cl)c2Cl)nn1C was read as NS1 function inh 0%, RE007 growth inh 18%, SARS PLpro yeast -1% and StopGo reporter 1%.
For CCCC(C)C(=O)NC1CCSC1=O (stereo unspecified) the results were NS1 function inh 3%, Cruzain inh Det 5.3%, RE007 growth inh 7%, SARS PLpro yeast 0%, LASV entry inh -14%, MARV entry inh 1%, StopGo reporter 22% and Cruzain noTriton 1%.
Screening COC(=O)c1ccccc1NC(=O)c1cc2nc(-c3ccc(OC)cc3)cc(C(F)(F)F)n2n1 returned Cruzain inh Det 0.2%, LASV entry inh 27%[46.1 µM], MARV entry inh 7%[46.1 µM], StopGo reporter -4% and Cruzain noTriton 3%.
Screening CC(C)Nc1nnc(SCC(=O)Nc2ccc(F)cc2)s1 returned NS1 function inh -4%, Cruzain inh Det -0.4%, RE007 growth inh 2%, SARS PLpro yeast 4%, LASV entry inh 0%, MARV entry inh 0% and Cruzain noTriton -2%.
Screening Cc1nc(-n2nc(C)c(Cc3ccc(Cl)cc3)c2C)sc1C(=O)N1CCCCC1C (stereo unspecified) returned Cruzain inh Det 5.1%, LASV entry inh 7%[46.1 µM], MARV entry inh 4%[46.1 µM], StopGo reporter 5% and Cruzain noTriton 5%.
For O=C(c1ccncc1)N(Cc1cc2ccccc2[nH]c1=O)C1CCCCC1 the results were NS1 function inh -2%, Cruzain inh Det -3.9%, RE007 growth inh -15%, SARS PLpro yeast 2%, LASV entry inh inconclusive, MARV entry inh inconclusive, StopGo reporter 0% and Cruzain noTriton -13%.
`COC(=O)N1c2ccccc2CCc2ccccc21` gave NS1 function inh 2%, RE007 growth inh 1%, SARS PLpro yeast 1%, LASV entry inh -15%, MARV entry inh inconclusive and StopGo reporter -17%.
`CC(OC(=O)c1snc(C(=O)NC2CCCCC2)c1N)C(=O)NC1CCCCC1` (stereo unspecified) gave NS1 function inh -1%, Cruzain inh Det -3.6%, RE007 growth inh 3%, SARS PLpro yeast 29%, LASV entry inh -12%, MARV entry inh -27%, StopGo reporter 65%[activator] and Cruzain noTriton 3%.
Screening CC(C)c1nnc(SCc2ccc(CSc3nnc(C(C)C)n3N)cc2)n1N returned NS1 function inh 1%, Cruzain inh Det 1.1%, RE007 growth inh -16%, LASV entry inh -4%, MARV entry inh 11%[46.1 µM], StopGo reporter -8% and Cruzain noTriton -5%.
`CC1CCCCC1NC(=O)C1Cc2ccccc2CN1S(C)(=O)=O` (stereo unspecified) gave NS1 function inh 0%, Cruzain inh Det 0.6%, RE007 growth inh 0%, SARS PLpro yeast -1%, LASV entry inh 3%, MARV entry inh 15%, StopGo reporter -15% and Cruzain noTriton inconclusive.
COc1ccc(NC(=O)O/N=C/c2ccccc2)cc1 was read as NS1 function inh -29%, RE007 growth inh -28%, SARS PLpro yeast -4% and StopGo reporter 69%[activator].
For NC(=O)OCC(COC(N)=O)c1ccccc1 the results were NS1 function inh -3%&3%, Cruzain inh Det -2.5%&5.8%&-0.1%, RE007 growth inh 6%&-2%[18.4 µM], SARS PLpro yeast 4%, LASV entry inh 1%&-3%, MARV entry inh -6%&35%&35%&35%&35%&8%&35%&35%&35%&35%&35%&35%, StopGo reporter -4%&-20%&5% and Cruzain noTriton 1%&9%&2%.
Screening COc1ccc(/C=C/C(=O)NC(=S)NN2CCCCC2c2cccnc2)cc1OC (stereo unspecified) returned NS1 function inh -6%, Cruzain inh Det inconclusive, RE007 growth inh -9%, SARS PLpro yeast 24%, LASV entry inh -7%, MARV entry inh inconclusive, StopGo reporter 6% and Cruzain noTriton -3%.
COC(=O)c1ccc(C2C=C(c3ccc(Cl)cc3)Nc3nc4ccccc4n32)cc1 (stereo unspecified) was read as Cruzain inh Det 1.2%, LASV entry inh inconclusive, StopGo reporter -34% and Cruzain noTriton -4%.
Cc1ccc(OCC(=O)Nc2nnc(C3CCCO3)s2)c(Br)c1 (stereo unspecified) was read as RE007 growth inh 2%, SARS PLpro yeast 0%, MARV entry inh 14%[46.1 µM] and StopGo reporter 43%[activator].
`N#CC1=C2SCN(c3ccccc3)CN2C(=O)CC1c1c(Cl)cccc1Cl` (stereo unspecified) gave NS1 function inh 11µM*, Cruzain inh Det -1.1%, RE007 growth inh -4%, SARS PLpro yeast 3%, MARV entry inh 1%, StopGo reporter -23% and Cruzain noTriton inconclusive.

Two compounds picked at random from the list so far, as already listed:
COC(=O)c1ccc(C2C=C(c3ccc(Cl)cc3)Nc3nc4ccccc4n32)cc1 (stereo unspecified) was read as Cruzain inh Det 1.2%, LASV entry inh inconclusive, StopGo reporter -34% and Cruzain noTriton -4%.
Cc1ccc(OCC(=O)Nc2nnc(C3CCCO3)s2)c(Br)c1 (stereo unspecified) was read as RE007 growth inh 2%, SARS PLpro yeast 0%, MARV entry inh 14%[46.1 µM] and StopGo reporter 43%[activator].

Continued.
Screening Cc1ccccc1OCCNc1cc(N2CCN(CCO)CC2)ccc1[N+](=O)[O-] returned NS1 function inh -7%, Cruzain inh Det -8.6%, RE007 growth inh -15%, SARS PLpro yeast -4%, LASV entry inh -26%, MARV entry inh inconclusive, StopGo reporter 0% and Cruzain noTriton -4%.
CSc1ncc(/C=C2/C(=O)NC(=O)N(C)C2=O)cn1 was read as NS1 function inh 11%, Cruzain inh Det 0.1%, RE007 growth inh -4%, SARS PLpro yeast 4%, LASV entry inh 9%, MARV entry inh 12%, StopGo reporter -10% and Cruzain noTriton 3%.
COc1cccc(C2SCC(=O)Nc3c2c(C)nn3-c2ccc(C)c(Cl)c2)c1OC (stereo unspecified) was read as Cruzain inh Det -7.0%, LASV entry inh inconclusive, MARV entry inh -2%[46.1 µM], StopGo reporter -12% and Cruzain noTriton -12%.
`Cc1nc(-n2nnc3cc(C)c(C)cc32)c2c3c(sc2n1)CCCC3` gave NS1 function inh 8%, Cruzain inh Det 2.8%, RE007 growth inh 2%, SARS PLpro yeast 2%, LASV entry inh -5%, MARV entry inh -5%, StopGo reporter 1% and Cruzain noTriton 1%.
COc1cccc2c1C(CO)N1C(C#N)C3CC(C(=O)O)C(C1C2)N3C (stereo unspecified) was read as NS1 function inh 7%, RE007 growth inh 6%, SARS PLpro yeast -1% and StopGo reporter -22%.
Screening C=CCn1c(=N)c(C(=O)OC)cc2c(=O)n3cccc(C)c3nc21 returned NS1 function inh -13%, Cruzain inh Det -4.1%, SARS PLpro yeast -6%, MARV entry inh 0% and Cruzain noTriton 3%.

Rows were taken by chance; overall some 4.7% were active at least once.
